Compound activity deposited in PubChem BioAssay by ICCB-Longwood Screening Facility, Harvard Medical School.
GIV-Gai inh: blocks GIV peptide binding to rat Galpha-i3. percent of control (FP), % (concentration not given with the values). 0.42% of 210,000 active. Galpha-i3/FITC-GIV peptide fluorescence polarization, 90 min; stronger effect = lower value; scaled: aluminum fluoride 0%, vehicle 100%;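 active means replicate mean at 85% of control or lower, very high polarization wells dropped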;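 further: wells of about 15 µL received 100 nL stock; the first replicate is given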
Target sequence (P08753 whole entry, looked up): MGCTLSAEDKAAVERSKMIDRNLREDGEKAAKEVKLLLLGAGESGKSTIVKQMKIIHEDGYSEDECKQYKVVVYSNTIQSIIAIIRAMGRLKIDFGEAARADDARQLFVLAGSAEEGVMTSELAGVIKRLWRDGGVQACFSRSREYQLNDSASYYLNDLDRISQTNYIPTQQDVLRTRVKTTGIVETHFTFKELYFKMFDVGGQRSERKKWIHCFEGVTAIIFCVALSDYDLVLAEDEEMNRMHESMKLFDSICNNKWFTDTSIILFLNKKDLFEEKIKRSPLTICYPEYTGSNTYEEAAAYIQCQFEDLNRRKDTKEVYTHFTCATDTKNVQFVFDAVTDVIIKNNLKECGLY
HCMV UL50-53 inh: inhibitors of HCMV UL50-UL53 nuclear egress complex interaction; HTRF UL50-UL53 interaction, normalized percent inhibition; inhibition, % (no concentration beside the values); 0.15% of 190,000 active;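 active means both replicates at 50% or more, plus weaker picks with an unusually low signal ratio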;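 further: stock transfer was 100 nL into about 20 µL; 0% = negative control wells and 100% = wells with untagged competitor protein; inactives centre near -12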
Sa growth 42C: inhibitors of Staphylococcus aureus growth at 42 °C; S. aureus RN4220 growth, OD600, 20 h; stronger effect = lower value; relative growth, % (test concentration not listed); 0.53% of 170,000 active;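 active means growth at 42 °C up to 50% and 20 or more points under that at 30 °C, or under 10% at both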;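 further: 300 nL library stock went into each well; scaled to the means of positive and negative controls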
Sa growth 42C second temp: further read-out of Sa growth 42C, marked with its call; relative growth, %; measured here: growth at 30 °C;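 optical density after 20 h as mean of two plates; 100% = untreated growth and lower means inhibition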
* hit, by the source's call; / = no result given.

SMILES,GIV-Gai inh,HCMV UL50-53 inh,Sa growth 42C,Sa growth 42C second temp
CCC(C)NC(=O)CSc1nc2c(sc3ccccc32)c(=O)n1CCc1ccccc1 (stereo not drawn),106,/,187,86
Cc1nnc(COC(=O)CC23CC4CC(CC(C4)C2)C3)o1,/,-34,83,86
CCc1ccc2c(c1)c1nc3ccccc3nc1n2CC,100,/,84,58
CCOC(=O)/C(C)=N\O,100,-36,101,73
C=CCS/C(=N\n1cnc2ccccc2c1=O)N1CCCCC1,/,-7,96,88
CCCCn1c(=O)[nH]c(=O)c2c(C(=O)OCC)cc(-c3ccccc3Cl)nc21,/,-17,86,73
OC(CNCc1ccccc1)C(F)(F)F (stereo not drawn),103,5,/,/
CNC(=O)c1ccc(-c2nc(CN3CCN(C(=O)Nc4ccc(C)c(C)c4)CC3)c(C)o2)cc1,100,-12,/,/
COC(=O)c1cn(C(=O)c2cc(OC)cc(OC)c2)nc1N,103,4,103,91
CC1=CS/C(=C(/C#N)C(N)=O)N1c1ccccc1,104,-11,115,77
Cc1csc(=O)n1CC(=O)NC1CCCc2ccccc21 (stereo not drawn),/,-26,69,95
CC(NC(=O)c1nc2ncccn2n1)c1ccccc1 (stereo not drawn),102,-6,92,102
Cc1ncc(CSCC(=O)Nc2cc(C(F)(F)F)cc(C(F)(F)F)c2)c(CO)c1O,101,/,110,83
Cc1[nH]c2ccccc2c1C1(O)C(=O)N(Cc2ccccc2)c2ccc(Br)cc21 (stereo not drawn),107,-24,83,68
Cc1ccc2cc(CN(Cc3ccccc3)C(=O)c3ccccc3C)c(=O)[nH]c2c1,/,-1,90,81
O=C(COC(=O)c1ccccc1Br)c1cccs1,/,-40,99,77
O=C(C1CCCC1)N1CCN(c2cnn(-c3ccccc3)c(=O)c2Cl)CC1,102,-28,78,95
Cc1cc(C(=O)N(C)Cc2ccccc2)on1,106,-13,93,92
CC(=C\c1ccccc1)/C=C1/SC(=O)NC1=O,101,/,43,39
Cc1ccc2c(c1)nnn2C1CCN(C(=O)Nc2ccc(C#N)cc2)CC1,107,-4,90,90

Next section; the last 6 above are carried over.
SMILES,GIV-Gai inh,HCMV UL50-53 inh,Sa growth 42C,Sa growth 42C second temp
Cc1ccc2cc(CN(Cc3ccccc3)C(=O)c3ccccc3C)c(=O)[nH]c2c1,/,-1,90,81
O=C(COC(=O)c1ccccc1Br)c1cccs1,/,-40,99,77
O=C(C1CCCC1)N1CCN(c2cnn(-c3ccccc3)c(=O)c2Cl)CC1,102,-28,78,95
Cc1cc(C(=O)N(C)Cc2ccccc2)on1,106,-13,93,92
CC(=C\c1ccccc1)/C=C1/SC(=O)NC1=O,101,/,43,39
Cc1ccc2c(c1)nnn2C1CCN(C(=O)Nc2ccc(C#N)cc2)CC1,107,-4,90,90
COC(=O)N/N=C/c1ccc(-c2ccccc2)o1,95,-106,81,79
Cc1cccc(N2CCN(C(=O)c3noc4c3CCCCC4)CC2)c1C,104,/,104,42
CC(NC(=O)c1ccccc1NC(=O)c1ccccc1)C(=O)N1CCCC1 (stereo not drawn),/,-1,112,94
CC(C)(C)c1ccc(C(=O)N(CC#N)CC#N)cc1,/,0,94,82
O=C(c1cncc(NS(=O)(=O)c2ccc(F)cc2)c1)N1CCOCC1,100,-25,/,/
Nc1nc(-c2ccc(F)cc2)nn1C(=O)c1ccc(F)cc1,95,-11,/,/
O=C(NCCCc1ccccc1)c1c(O)nc2sccn2c1=O,106,-39,71,65
N#Cc1ccc(C2=NC(C(F)(F)F)(C(F)(F)F)c3c(n(Cc4ccco4)c(=O)[nH]c3=O)N2)cc1,104,-21,65,52
Cc1ccc(S(=O)(=O)NC(O)C(=O)c2cccs2)cc1 (stereo not drawn),103,/,110,67
O=C(Nc1cccc(Cl)c1)c1cc(S(=O)(=O)N2CCC3(CC2)OCCO3)ccc1F,103,/,122,98
Cc1nccc(-c2cc(-c3cccc(C(F)(F)F)c3)no2)n1,105,-25,97,89
CCC(Sc1nc(=O)cc(N)n1CCc1ccccc1)C(=O)Nc1ccccc1C#N (stereo not drawn),107,0,103,84
COC(=O)c1ccc2c(c1)C1C3CCC(C3)C1C(c1ccccc1)N2 (stereo not drawn),99,/,90,93
CCOC(=O)c1sc(SCc2c(Cl)cccc2Cl)c(S(=O)(=O)C(C)C)c1N,104,18,98,89
COc1cc(OC)cc(-n2c(-c3ccco3)nc3nc4ccccc4nc32)c1,105,-21,94,84
O=S(=O)(NCc1cccnc1)c1cccc2nsnc12,101,-64,110,93
O=C(CSc1nc2ccccc2o1)Nc1ccccc1,/,-15,99,83
COc1cccc(CNC(=O)CNC(=O)C2(C)Cn3c(cc4ccccc43)C(=O)N2C)c1 (stereo not drawn),101,-4,/,/
CC1(C)CC(=O)C=C(NCc2ccccc2)C1,/,-34,100,88
O=C1/C(=C/c2cccs2)SC(=S)N1C1CCCCC1,109,/,92,96

(list continues)
structure | GIV-Gai inh | HCMV UL50-53 inh | Sa growth 42C | Sa growth 42C second temp
O=C1CC(c2ccccc2)CN1C(=O)c1ccccc1Cl (stereo not drawn) | / | 7 | 90 | 89
CS/C(=C(/C#N)S(=O)(=O)c1ccc(Cl)cc1)N1CCOCC1 | 105 | -23 | 95 | 85
NS(=O)(=O)c1cc(C(=O)OCC(=O)NC2CC2)ccc1Cl | / | -2 | 104 | 108
Cc1cccc(C(=O)N2CCc3cc(CNC(=O)c4ccc(Br)o4)ccc32)c1 | 108 | / | 126 | 81
Cc1cc(OCC(=O)N(c2ccccc2)C2CCCCC2)c2ccccc2n1 | 101 | 19 | 98 | 87
CCS(=O)(=O)Nc1ccc(-c2cn3ccsc3n2)cc1 | 100 | / | 83 | 83
CC(=O)N1CCCc2cc(S(=O)(=O)N(Cc3ccccc3)C(C)C)ccc21 | 105 | / | 96 | 92
CC(C)OC(=O)C(C)Oc1ccc2c3c(c(=O)oc2c1)CCC3 (stereo not drawn) | 97 | -39 | 90 | 78
CCOc1ccc(CNC(=O)C2CCN(Cc3cc4ccccc4n3Cc3ccccc3C)CC2)cc1 | 102 | / | 111 | 92
CC(C)N(Cc1ccccc1)C(=O)c1ccccc1 | 99 | -18 | 101 | 96
CC(C)N(C(=O)NCc1ccccc1)C(C)C | 102 | -38 | 92 | 78
CCOc1ccc2nc(NC(=O)c3ccc4c(c3)OCCO4)sc2c1 | 104 | -10 | / | /
COc1ccc(NC(=O)Cn2nc3c(Sc4ccccc4)nc4ccccc4n3c2=O)c(OC)c1 | 105 | -13 | / | /
COc1ccc(/C=C(\C#N)C(=O)Nc2ncc(Cc3cc(Cl)ccc3Cl)s2)cc1OC | 101 | -24 | / | /
O=C(O)c1ccc(N2CCN(c3ncccn3)CC2)c(NC(=O)c2ccc(F)cc2)c1 | 100 | 3 | / | /
[O-]/[N+](=C\c1ccco1)C/C(=N/O)c1cccs1 | 99 | -54 | 107 | 110
CCOC(=O)CC(=O)c1sc(SCc2ccccc2)nc1N | 112 | -60 | 102 | 98
Cc1cccc(N2CC(C(=O)O)CC2=O)c1 (stereo not drawn) | 99 | -17 | 103 | 82
Cn1ccsc1=NC(=O)COc1cccc2ccccc12 | / | -14 | 115 | 89
CC(c1ccccc1)C1C(C#N)=C(N)SC(N)=C1C#N (stereo not drawn) | 108 | -18 | 84 | 52
CN(Cc1ccccc1)c1ccc(-c2nc(-c3ccccc3)no2)cc1[N+](=O)[O-] | 103 | -5 | 102 | 85
Cc1ccc(OCCn2c(SCC(N)=O)nc3ccccc32)cc1 | 100 | -22 | 93 | 89
Cn1c(=O)c2c(C(=O)NCCN3CCCC3)cc(=O)n(C)c2n(C)c1=O | 98 | 14 | / | /
O=C(O)CCCc1nc(-c2ccccn2)no1 | 97 | -18 | 109 | 88
CCOC(=O)c1c(C=O)oc2c(C)cc(OC(=O)c3cccs3)c(Br)c12 | 99 | -16 | / | /
Cc1ccc(-c2oc(N)c(C#N)c2-c2ccc(C)cc2)cc1 | 106 | -49 | 104 | 98
CN1C(=O)c2ccccc2Sc2ccc(NC(=O)Cc3ccc(Cl)cc3)cc21 | 107 | / | 111 | 80
CCCN1CCN(CCCNC(=O)CN2C(=O)C(c3ccccc3)Oc3cccnc32)CC1 (stereo not drawn) | 104 | -28 | 105 | 95
CC(=O)N1CCc2cc(CNS(=O)(=O)c3cccs3)ccc21 | 102 | / | 93 | 72
CCN(C(=O)CSc1nnc(-c2cc(OC)c(OC)c(OC)c2)o1)c1ccccc1 | 101 | -7 | 102 | 89
O=C(COc1ccccc1C(=O)NCc1ccccc1)Nc1cccc2nsnc12 | / | -50 | 69 | 96
Cc1cccc(Cn2ccn(-c3ccccc3)c(=O)c2=O)c1 | 101 | -47 | / | /
O=C(NCC1CCCO1)c1ccc2c(c1)sc1nc(-c3ccccc3)cn12 (stereo not drawn) | 102 | / | 120 | 38
CCOC(=O)c1cccc(NC(=O)C2CCCN(c3nnc(C)c4c(C)n(-c5ccccc5)nc34)C2)c1 (stereo not drawn) | 104 | / | 90 | 90
CC(C)CC(=O)Nc1ccc2c(c1)nc1n2CCN(C(C)C)C1 | 102 | -5 | / | /
CC1CN(c2ccc(NC(=S)Nc3ccc(N4CC(C)OC(C)C4)cc3)cc2)CC(C)O1 (stereo not drawn) | 98 | 7 | 87 | 91
O=C(Nc1ccc(Br)cc1F)C1CCN(S(=O)(=O)Cc2ccccc2)CC1 | 109 | -4 | / | /
O=C(Nc1ccccc1)Nc1ccccn1 | / | -1 | 78 | 87
c1cnc(-c2nnc3sc(C45CC6CC(CC(C6)C4)C5)nn23)cn1 | 97 | -5 | 80 | 87
CCc1ccc2nc(NC(=O)c3sc(COc4cccc(C)c4)nc3C)sc2c1 | 106 | -8 | / | /
CCOc1ccc(-c2nc3cc(NC(=O)COc4cccc(C)c4)ccc3o2)cc1 | 110 | 1 | 98 | 97
CN(C)c1ccc(/C=C2\CCC=C2N2CCOCC2)cc1 | / | -27 | 87 | 97
Cn1c(SCc2nc(-c3ccc4c(c3)OCO4)no2)nc2ccsc2c1=O | 96 | -23 | / | /
Cc1nc(Sc2nc3ccccc3o2)c2c3c(sc2n1)CCCC3 | 99 | -35 | 97 | 86
CCOC(=O)c1ccc(N2Cc3ccccc3C2)cc1 | 111 | 4 | 102 | 104
COc1ccccc1Nc1nc(-c2ccccc2Cl)c2cc(Br)ccc2n1 | 106 | -18 | 101 | 106
O/N=C/c1c(-c2ccccc2Cl)[nH]c2ccccc12 | 106 | -7 | 145 | 108
CNc1ccc(Br)cc1-c1nc2cc3ccccc3cc2n(C)c1=O | 100 | -4 | / | /
O=C(Nc1ccc(-c2ccc(N3CCCCC3)nn2)cc1)C(F)(F)F | 109 | -22 | 95 | 80
CC1=C(C#N)C2(O)C(=O)c3ccccc3C2(O)N1 (stereo not drawn) | 98 | -48 | 114 | 108
Cc1cc(NC(=O)CC#N)n(-c2ccccc2)n1 | / | -13 | 104 | 91
CCOC(=O)C1=NN(C(=O)c2ccc([N+](=O)[O-])cc2)C(O)(C(C)(C)C)C1 (stereo not drawn) | 108 | -102 | / | /
Cc1nn(CCCC(=O)NC2CCCCC2C)c(=O)c2cc3sccc3n12 (stereo not drawn) | 101 | -5 | 103 | 95
CCOc1c(C)cnc2c1c(=O)n(CC(=O)Nc1ccc3c(c1)OCO3)c(=O)n2C | 106 | 0 | / | /
COc1cccc(NC(=S)NC(C)(C)C)c1 | 102 | -2 | 109 | 100
CC(c1ccccc1)n1c(SCC(=O)c2cc(-c3ccccc3)no2)n[nH]c1=O (stereo not drawn) | 101 | -24 | 103 | 92
Cc1cn(CCC(=O)Nc2ccccc2N2CCOCC2)c2ccccc12 | 104 | 7 | 101 | 95
CCN1CCN(c2cc(C)c3cc(NC(=O)/C=C/c4ccc(OCCC(C)C)cc4)ccc3n2)CC1 | 102 | 6 | 99 | 101
Cc1cccc2cc(CN(CCO)S(=O)(=O)c3ccc(Cl)cc3)c(=O)[nH]c12 | 101 | -22 | 119 | 94
CC(Sc1ccc(Cl)cc1)C(=O)NCC1CCCO1 (stereo not drawn) | 102 | -6 | 97 | 107
O=C(CC1CCCCC1)Nc1ccc(N2CCOCC2)cc1N1CCOCC1 | / | 2 | 105 | 95
